Screens: PubChem, ICCB-Longwood Screening Facility, Harvard Medical School
MgrA-DNA mod: S. aureus MgrA activity modulators, primary screen, biochemical, S. aureus Newman, fluorescence polarization; MgrA-DNA binding; inhibition, %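 (about 10 µg/mL by stock and volumes)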; 84,000 tested, 0.13% active; AID 602314, 2012;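 active = above 50% in either of two replicates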;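 note: 0% = protein plus DNA without compound and 100% = DNA alone without protein; higher means less MgrA bound to DNA so lower polarization; one replicate is shown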
S aureus helic: inhibitors of S. aureus replicative helicase, primary screen, biochemical, fluorescence unwinding readout. replicative DNA helicase (DnaC/DnaB), Staphylococcus aureus. purified S. aureus helicase, fluorescence unwinding assay; about half of the hits fall short of the stated cut. inhibition, %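 (tested at about 80 µM)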. 120,000 tested, 0.05% active;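 active = both duplicates at 50% or more, or one of them with a favoured structure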;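 note: 0% = mean of negative control wells and 100% = mean of positive control wells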
* = called active by the depositor; · = no result given; & = joins results of further samples.

| Molecule | MgrA-DNA mod | S aureus helic |
| --- | --- | --- |
| COC(=O)c1ccc(OCC(O)CN2CC(C)CC(C)C2)cc1 (stereo not drawn) | · | -11 |
| CC(OC(=O)c1ccc2c(c1)S(=O)(=O)N=C1CCCCCN12)C(=O)NC1CC1 (stereo not drawn) | · | -6 |
| COc1ccc(C2NC(CC(C)C)(C(=O)O)C3C(=O)N(c4ccccc4OC)C(=O)C23)cc1 (stereo not drawn) | 4.0 | 7 |
| COc1cc(C(F)(F)F)nc2ccc(C#CCOC(=O)c3ccccc3)cc12 | -0.3 | · |
| CCCCc1c(O)cc(-c2ccccc2)n(Cc2ccccc2)c1=O | -1.0 | · |
| CC(C)(C)c1ccc(-c2noc(-c3ccc4c(c3)CCO4)n2)cc1 | 1.8 | · |
| CCCN(CCC)S(=O)(=O)c1ccc2c(c1)C(=C(C)C)C(=O)N2 | · | 20 |
| CN(C)c1nc2c(c(=O)[nH]c(=O)n2C)n1Cc1ccc(Cl)cc1 | · | 4 |
| CN1C(=O)N(C)C2CC1N(C)C(=O)N2C | -0.1 | 23 |
| Cc1nn(CC(=O)NC2CCCCCC2)c(=O)c2nn(-c3ccccc3)c(C)c12 | · | -19 |
| Cc1ccc(NC(=O)CCc2nnc3ccc(NC4CCCC4)nn23)cc1 | 0.4 | 3 |
| CCCn1c(C)cc(C(=O)COC(=O)c2ccc(S(C)(=O)=O)cc2)c1C | · | 15 |
| CC1CCN(C(=O)CCNS(=O)(=O)c2ccc3c(c2)c(=O)n(C)c(=O)n3C)CC1 | · | -13 |
| Cc1nccc(-c2cccc(N/N=C(\C#N)S(=O)(=O)c3ccccn3)c2)n1 | · | 0 |
| Cc1cccc(Nc2nc(-c3ccc(F)cc3)cs2)n1 | 4.4 | 16 |
| CCOC(=O)C1(O)CC(C)=NN1C(=O)c1cccc(Cl)c1 (stereo not drawn) | 4.6 | 10 |
| CCCC(=O)Nc1nc2ccc(S(=O)(=O)N(C)C)cc2s1 | · | -14 |
| O=C(Nn1c(-c2cccc(Cl)c2)nc2ccccc2c1=O)c1cc2cc(Br)ccc2oc1=O | -0.9 | · |
| CC(C)c1cc(NC(C)c2ccccc2)n2c(nc3ccccc32)c1C#N (stereo not drawn) | 0.4 | 9 |
| O=C(NC(=S)Nc1cccnc1)c1ccccc1 | 0.0 | · |

Next section
| Molecule | MgrA-DNA mod | S aureus helic |
| --- | --- | --- |
| O=C1CCCN1CCCNc1ccc2nnc(CCC(=O)N3CCCCC3)n2n1 | · | -2 |
| Cc1ccc(N=C2NC(=O)/C(=C3\C(=O)N(C)c4ccccc43)S2)cc1C | · | 3 |
| CC(C)(C)c1cc([N+](=O)[O-])c(OC(=O)c2ccc(Cl)cc2Cl)c(C(C)(C)C)c1 | -4.2 | · |
| CC(=O)N1C(=O)C2(OCCO2)c2ccccc21 | -1.8 | 19 |
| Cc1cc(C)c(Cn2c3ccccc3c3cnn(CC(=O)NCc4ccco4)c(=O)c32)c(C)c1 | · | -4 |
| Cc1nnc(SCC(=O)c2ccc(Cl)cc2)s1 | -3.2 | 3 |
| CC1CCCCN1S(=O)(=O)c1ccc(F)c(C(=O)Nc2c(F)cc(F)cc2Br)c1 (stereo not drawn) | -0.2 | -6 |
| CN1C(=O)CC(c2ccco2)Sc2ccccc21 (stereo not drawn) | · | 8 |
| CC1S/C(=N\N=C/C23CC4CC(CC(C4)C2)C3)NC1=O (stereo not drawn) | · | -38 |
| CC(Sc1nnc(-c2ccco2)n1C(C)C1CC2CCC1C2)C(N)=O (stereo not drawn) | · | -12 |
| Cc1cccc(C)c1N=C(NO)c1nonc1N | 1.6 | 0 |
| CCSc1nc2c(c(=O)n1CC)C1(CCCC1)Cc1ccccc1-2 | 0.9 | 13 |
| Cc1nn(C)c(C)c1NS(=O)(=O)c1ccccc1 | · | 4 |
| COC(=O)c1c(Cc2cccc(C(F)(F)F)c2)c[nH]c1C | · | 28 |
| CC(=O)Oc1ccc(-c2nc(-c3ccccc3)no2)cc1 | -0.4 | -1 |
| c1ccc(NCC2OCc3ccccc3CO2)cc1 | 0.3 | 4 |
| COc1ccc2c(c1)c1c3n2CCN(C)C3=NCC1 | · | 9 |
| Cc1nc2ccccn2c(=O)c1NC(=O)C(C)C | · | 9 |
| CCN1CCC(=NNC(=O)COc2ccc(Cl)cc2Cl)CC1 | · | -11 |
| N#CCc1c(C#N)c(N)nc(Nc2ccccc2)c1C#N | · | -168 |

Following part
| Molecule | MgrA-DNA mod | S aureus helic |
| --- | --- | --- |
| CC(=O)OC1C(=O)OC2C1OC(n1ccc(=O)[nH]c1=O)C2OC(C)=O (stereo not drawn) | 0.4 | -1 |
| O=C(NCCN1CCN(C(=O)Nc2ccccc2)CC1)Nc1ccccc1 | · | 31 |
| O=C(Nc1nnc(-c2ccc(Cl)cc2)o1)C1CC1 | · | 6 |
| CC(C)NC(=O)C1CCCN(c2nnc(-n3cccc3)s2)C1 (stereo not drawn) | · | 9 |
| O=C(NCCc1c[nH]c2ccccc12)c1cc2c(s1)CCC2 | -2.8 | -3 |
| N/C(=N\S(=O)(=O)c1cc(Cl)c(Oc2ccc([N+](=O)[O-])cc2)c(Cl)c1)c1ccncc1 | 3.8 | · |
| O=C(COc1ccc(Cl)cc1Cl)NC(=O)NC1CCCC1 | · | 8 |
| CCOC(=O)c1c(NC(=O)c2cc(-c3ccc4c(c3)OCO4)on2)sc2c1CCCC2 | 4.0 | 3 |
| O=C(COc1ccccc1)OCc1nc2ccccc2s1 | · | 7 |
| CS(=O)(=O)N1CCN=C1SCc1cccc2ccccc12 | · | 23 |
| C=CCOc1ccc2ccc(=O)oc2c1 | 1.1 | 1 |
| O=C(OCC(=O)N1CCOCC1)c1cc(F)c(F)cc1Cl | -0.9 | -7 |
| CNc1ccccc1C(=O)NC1CC(C)CC(C)(C)C1 (stereo not drawn) | -3.8 | · |
| CCOC(=O)c1cc2c(ccn2-c2ccc(F)cc2)n1CC(=O)c1ccc2c(c1)OCCO2 | 3.0 | 7 |
| COc1ccc(C(=O)CN2CCCc3cc(C)ccc32)cc1 | -0.9 | · |
| CC(C)S(=O)(=O)/C(C#N)=C/Nc1ncccn1 | -0.6 | · |
| CCOc1ccc2c(c1)SC1=NC(C(F)(F)F)(C(F)(F)F)NC(=O)N12 | 1.4 | -2 |
| COC(=O)Cc1[nH]n(-c2ccccc2)c(=O)c1C=Nc1ccc(C)cc1 | -0.1 | -9 |
| CCn1cc(CCCC(=O)NCCC2=CCCCC2)c2ccccc21 | 0.6 | -2 |
| CNC(=S)N/N=C/c1ccc(OC)cc1 | 3.2 | · |

(next part)
| Molecule | MgrA-DNA mod | S aureus helic |
| --- | --- | --- |
| Cc1cc(C)cc(CC(C(=O)O)C(C)C(=O)Nc2cccc(C(F)(F)F)c2)c1 (stereo not drawn) | -0.7 | -4 |
| Cc1cc(CC(=O)O)n(C)c1C(=O)c1ccc(Cl)cc1 | -0.8&1.4 | · |
| Cn1c(=N)n(CC(=O)C23CC4CC(CC(C4)C2)C3)c2ccccc21 | -2.2 | -2 |
| CC(Oc1ccc(F)cc1)C(=O)NCc1ccncc1 (stereo not drawn) | -2.8 | 11 |
| COc1cccc(NC(=O)CN(C)CC(=O)Nc2cccc(Br)c2)c1 | · | -12 |
| CCOC(=O)c1cnc(=S)[nH]c1N | -1.2 | · |
| CN(C)c1nc(SCC(N)=O)nc(N(C)C)n1 | 0.3 | 1 |
| COc1ccc(/C=[N+](\C)[O-])c(OC)c1 | · | 2 |
| CCOC(=O)c1c(CSc2ccsc2)n(C)c2cc(Br)c(O)c(CN(C)C)c12 | · | -19 |
| O=C(c1noc2c1CCc1sccc1-2)N1CCc2ccccc21 | · | 16 |
| O=C(Cn1cnc2c(nnn2Cc2ccccc2)c1=O)c1ccccc1 | · | 0 |
| Cc1ccc(SCC(=O)NCCCN2CCCC2=O)c(C)c1 | · | -11 |
| O=C(NCCN1CCCC1)c1ccc(Cl)cc1 | 4.0 | 8 |
| Cc1cc(/C=N/NC(=O)c2ccncc2)c(C)n1-c1ccccc1 | · | 2 |
| Cc1ccc(C(C)C)c(OCC(=O)Nc2cc(-c3nc4ncccc4o3)ccc2C)c1 | 1.1 | 11 |
| COc1ccc(CC(=O)N2N=C(C)CC2(O)C(F)(F)F)cc1 (stereo not drawn) | -3.4 | 9 |
| O=C(CCc1nc2ccccc2c(=O)[nH]1)N(Cc1nnc(-c2ccccc2Cl)o1)C1CC1 | · | -11 |
| O=C(Nc1ccc(Cl)cc1C(F)(F)F)C(Sc1cccc[n+]1[O-])c1ccccc1 (stereo not drawn) | -0.3 | 1 |
| O=C(CSc1ncccn1)c1ccc(O)c(O)c1 | · | -12 |
| CCc1ccc2nc(N3CCC(C(=O)NC4CC4)CC3)sc2c1 | · | 31 |

Further structures.
| Molecule | MgrA-DNA mod | S aureus helic |
| --- | --- | --- |
| N#Cc1ccc(NC(=O)c2cc(C3CC3)nn2-c2ccccc2)cc1 | · | 9 |
| CS(=O)(=O)Nc1ncnc2sccc12 | · | -10 |
| CCN(C(=O)CSc1nccn1C)c1ccccc1 | 0.0 | -24 |
| CN(C)/C=C1\C(=O)N(c2ccccc2)C(=O)C1=Nc1ccccc1 | -1.0 | · |
| O=S(=O)(c1ccccc1)N1CCC(N2CCCCC2)CC1 | -2.0 | -5 |
| CCOc1ccc(Oc2cc(NC(=O)c3ccc(F)cc3)cc(NC(=O)c3ccc(F)cc3)c2)cc1 | -0.8 | -4 |
| CCOc1ccc(C(=O)OCC(=O)N2CCCCC2)cc1 | -0.1 | -18 |
| Cn1c(N)c(C(=O)CN2CCN(S(=O)(=O)/C=C/c3ccccc3)CC2)c(=O)n(C)c1=O | · | 9 |
| Cc1ccc(NC(=O)Cn2c(=O)/c(=C/c3ccc(N(C)C)cc3)s/c2=C\C#N)cc1 | · | -47 |
| COc1ccc(-c2cc(C(=O)NCC3CCCO3)on2)cc1OC (stereo not drawn) | · | 24 |
| N=C1/C(=C/c2ccc(SC3CCCCC3)o2)C(=O)N=C2SC=CN12 | 0.8 | -15 |
| CCOC(=O)c1c(NS(=O)(=O)c2ccc(Br)cc2)sc2c1CCC(C)C2 (stereo not drawn) | -4.4 | 10 |
| CCC(=O)c1ccc(OC(F)F)cc1 | · | 21 |
| COc1ccc(N2CCN(Cc3nc4ccsc4c(=O)[nH]3)CC2)cc1 | · | 3 |
| Cc1n[nH]c(C)c1CS(=O)(=O)c1ccccc1 | -2.5 | · |
| NS(=O)(=O)c1ccc(NC(=O)c2ccc(-c3ccccc3Cl)o2)cc1 | · | -17 |
| COc1ccc(NS(=O)(=O)c2sc(Cl)cc2Br)c(OC)n1 | -2.0 | · |
| CCOC(=O)c1c(C)c(C(=O)N2CC(C)CC(C)C2)c(C)n1C (stereo not drawn) | · | -5 |
| COc1ccc(-c2nc(-c3ccc(-c4ccccc4)cc3)cs2)cc1 | -3.0 | · |
| COC(CNc1ncnc2sc3c(c12)CCC3)OC | · | 27 |

Other compounds.
| Molecule | MgrA-DNA mod | S aureus helic |
| --- | --- | --- |
| Nc1cccc(C(=O)N2CCOCC2)c1 | -3.2 | 5 |
| CCNC(=O)C1CCCN(S(=O)(=O)N(CC)c2ccc(OCC)cc2)C1 (stereo not drawn) | · | -26 |
| O=C(COC(=O)c1ccc(O)cc1)Nc1cc(C(F)(F)F)ccc1N1CCOCC1 | · | 20 |
| NS(=O)(=O)c1ccc2ccccc2c1 | -2.0 | 8 |
| O=C(COC(=O)c1c2c(nc3ccccc13)CCC2)Nc1ccccc1 | 0.5 | -11 |
| COc1ccc(C)cc1NC(=O)C1CC1C (stereo not drawn) | · | 5 |
| CC1=CC(=C2C(=O)NC(=S)NC2=O)C=C(C(F)(F)F)N1CCOCCO | · | -23 |
| CN(c1cccc2cccnc12)S(=O)(=O)c1ccccc1 | 4.7 | 8 |
| Cc1cc(C)c2c(=O)[nH]n(C3CC(C)N(C)CC3C)c2n1 (stereo not drawn) | · | 4 |
| CN(C)c1c(F)cc(C(=O)NCc2ccccc2)cc1F | · | -10 |
| c1ccc2c(CN3CCN(Cc4ccncc4)CC3)c[nH]c2c1 | · | 5 |
| CC(Sc1n[nH]c(-c2ccncc2)n1)C(=O)N(C)c1ccccc1 (stereo not drawn) | · | -15 |
| CCNc1c(NS(=O)(=O)c2ccc(C)cc2)c(=O)oc2ccccc12 | · | -40 |
| CC(=O)Nc1c(C(=O)N2CCOCC2)sc2nc3c(cc12)COC(C)(C)C3 | 2.1 | -11 |
| Cn1cnnc1SCC(=O)Nc1ccccc1 | · | 7 |
| COC(=O)NC1c2ccccc2Oc2ccc(C)cc21 (stereo not drawn) | · | -5 |
| C=CCSc1nc2c(cnn2-c2ccc(C)c(C)c2)c(=O)[nH]1 | 3.2 | 17 |
| Cc1ccc2c(c1)sc1nc(=O)ccn12 | · | -19 |
| Cc1sc2c(c1C)CN(Cc1ccccc1)CN2C(=O)c1ccco1 | · | 5 |
| COC(CNC(=O)CN1CCN(Cc2ccc(F)cc2Cl)C1=O)OC | · | 7 |

More records follow:
| Molecule | MgrA-DNA mod | S aureus helic |
| --- | --- | --- |
| Fc1cccc(-c2nnn3c2nc(Cl)c2ccccc23)c1 | · | -17 |
| O=C(NCc1ccccc1)c1cc(-c2ccco2)nc2ccccc12 | · | -8 |
| O=C(NCCN1CCOCC1)C1CCC(Cn2c(=S)[nH]c3ccccc3c2=O)CC1 (stereo not drawn) | 0.8 | 0 |
| CS(=O)(=O)c1ccc(-c2nn[nH]n2)cc1 | 0.0 | -2 |
| Cc1cccc(-c2noc(CNC(=O)CC(C)(C)C)n2)c1 | · | 1 |
| Cc1ccc(Sc2ncccc2C(N)=O)cc1 | -3.3 | · |
| Nc1nc(SC/C=C/c2ccccc2)n[nH]1 | 0.0 | · |
| O=C1CN(c2nc(-c3ccc(Cl)cc3)cs2)CCN1 | -2.0 | -5 |
| O=C(NC1(O)C(=O)c2ccccc2C1=O)c1ccccc1 | 1.5 | 8 |
| Fc1ccc(COc2ccccc2CNC2CCCC2)cc1 | -2.4 | 14 |
| Cc1ccc2[nH]c(=O)c(CCC(=O)O)c(C)c2c1 | -2.4 | 18 |

A portion of the library; count on the stated rates, not on these rows.
